hNpr1 antagonist = blocks ANP-stimulated signaling of human Npr1 receptor; hit rate 1.6% among 76,000; AID 1347048; P16066; Potency, µM (doses to about 46.3 µM), for the others: at the top dose activity change, negative = inhibition, hits mostly inhibitors; HEK293 hNpr1 GloSensor cGMP, ANP-stimulated luminescence; active = well fitted inhibition curve with a large enough effect; inconclusive = small, poorly fitted or top-dose-only effect; inactive = no such curve, though single readings can be large or run the other way;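 also: nearly all actives have a fitted effect of over 60% in size; nearly all hits also lower the signal before the agonist is added; a reference antagonist and vehicle were the controls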
Target sequence (P16066 whole entry, looked up): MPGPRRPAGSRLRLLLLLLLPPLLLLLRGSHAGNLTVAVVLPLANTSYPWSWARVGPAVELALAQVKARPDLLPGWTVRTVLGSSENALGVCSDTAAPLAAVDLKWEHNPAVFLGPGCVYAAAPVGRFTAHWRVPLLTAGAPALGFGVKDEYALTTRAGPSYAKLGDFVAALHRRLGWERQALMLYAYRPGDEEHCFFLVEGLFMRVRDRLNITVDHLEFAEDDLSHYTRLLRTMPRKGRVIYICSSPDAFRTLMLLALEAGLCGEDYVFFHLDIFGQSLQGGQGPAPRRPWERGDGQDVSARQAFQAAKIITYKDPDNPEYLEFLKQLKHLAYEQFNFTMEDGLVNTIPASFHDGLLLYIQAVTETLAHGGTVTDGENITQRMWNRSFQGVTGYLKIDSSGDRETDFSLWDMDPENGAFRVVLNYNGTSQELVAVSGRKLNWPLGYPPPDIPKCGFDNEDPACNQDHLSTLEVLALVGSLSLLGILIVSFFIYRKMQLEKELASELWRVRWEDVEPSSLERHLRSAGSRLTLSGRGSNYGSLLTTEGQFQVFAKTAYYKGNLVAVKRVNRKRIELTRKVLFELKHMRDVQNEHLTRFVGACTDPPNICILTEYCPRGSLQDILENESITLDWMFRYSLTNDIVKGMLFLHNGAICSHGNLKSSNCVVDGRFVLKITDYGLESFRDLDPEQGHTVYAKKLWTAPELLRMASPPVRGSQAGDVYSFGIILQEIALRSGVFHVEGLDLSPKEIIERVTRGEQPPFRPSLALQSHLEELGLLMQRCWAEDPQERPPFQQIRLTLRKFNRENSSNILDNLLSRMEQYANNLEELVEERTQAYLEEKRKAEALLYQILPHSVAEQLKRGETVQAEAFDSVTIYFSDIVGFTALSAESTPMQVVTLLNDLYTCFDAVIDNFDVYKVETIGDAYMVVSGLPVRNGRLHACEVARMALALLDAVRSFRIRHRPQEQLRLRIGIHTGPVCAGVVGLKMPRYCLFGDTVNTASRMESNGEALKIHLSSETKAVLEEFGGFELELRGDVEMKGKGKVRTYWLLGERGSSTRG
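HEK293 cells stably expressing human Npr1 and cGMP GloSensor pGS-40F, loaded 2 h with 2% GloSensor reagent, given compound 30 min at room temperature. Luminescence read before and 20 min after 0.1 nM hNppA.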
The depositor's hits bear a star; ? = inconclusive; [ ] = another dose, or the depositor's remark. % is scaled to controls: 0 for no effect and ±100 for the full control effect; potency is read from the fitted curve at half-maximal effect. A portion of the library, so the mix of outcomes need not match the whole.

The opening 7 entries as a preview:
SMILES | hNpr1 antagonist
CSc1ccccc1OCc1cc(C(=O)NCCN2CCCCC2CO)no1 (centres undefined) | -4%
CCn1cc(-c2nc3cc(S(=O)(=O)NC(C)C)ccc3n2C(C)C)c(C)n1 | 0%
O=C(C[C@@H]1CCNC[C@@H]1Cc1cc(CSc2ccccc2)on1)NCc1cccnc1 | 1%
CC(C)Cc1cc(C(=O)N2CCc3[nH]nc(-c4ccccc4)c3C2)nc(=O)[nH]1 | 4%
CN1CCCCCCN(C(=O)C2CCC2)[C@H]2CCC[C@H]2C1=O | 5%
Cc1sc2cc(C(=O)NCCN(C)C)[nH]c2c1CN1CCCCC1 | -1%
COc1ccc(-c2nnc(C[C@@H]3C[C@@H](C(C)C)[C@H](CNc4ccccn4)C=C3C)o2)cc1 | 16µM*

This part in full, from the start:
SMILES | hNpr1 antagonist
CSc1ccccc1OCc1cc(C(=O)NCCN2CCCCC2CO)no1 (centres undefined) | -4%
CCn1cc(-c2nc3cc(S(=O)(=O)NC(C)C)ccc3n2C(C)C)c(C)n1 | 0%
O=C(C[C@@H]1CCNC[C@@H]1Cc1cc(CSc2ccccc2)on1)NCc1cccnc1 | 1%
CC(C)Cc1cc(C(=O)N2CCc3[nH]nc(-c4ccccc4)c3C2)nc(=O)[nH]1 | 4%
CN1CCCCCCN(C(=O)C2CCC2)[C@H]2CCC[C@H]2C1=O | 5%
Cc1sc2cc(C(=O)NCCN(C)C)[nH]c2c1CN1CCCCC1 | -1%
COc1ccc(-c2nnc(C[C@@H]3C[C@@H](C(C)C)[C@H](CNc4ccccn4)C=C3C)o2)cc1 | 16µM*
CC(=O)N[C@@H]1C=C(C(=O)N[C@H](CC(C)C)C(N)=O)C[C@@H](O)[C@@H]1O | -20%[70.6 µM]
CC(C)c1ccc(N2C(=O)N[C@@H]3CCN(C(=O)C4CCCC4)[C@@H]3C2=O)cc1 | -10%[70.6 µM]
Cc1ccc(-n2nc(-c3c(C)nc4scc(CC(=O)N5CCOCC5)n4c3=O)cc2C)cc1 | 0%
O=C(c1ccsc1)N1CCN(c2cc(-c3ccc(Cl)cc3)[nH]n2)CC1 | -26%
COc1ccc(-c2ccc3ncc(Nc4ccc(C(N)=O)cc4)n3n2)cc1OC | 2%[70.6 µM]
COc1ccccc1CC(=O)NC1CCN(c2cnn(CC3CC3)c(=O)c2)CC1 | -2%
C#CCNC(=O)[C@@H]1Cc2cn(Cc3ccncc3)c3cccc(c23)[C@H](CC(C)C)N1 | -10%[70.6 µM]
Cc1noc(C)c1-c1cc(-c2ccncc2)cn2cncc12 | 2%[70.6 µM]
COc1ccc(C(=O)N2CCC(Oc3ccc(-c4noc(C(C)C)n4)cc3)C2)cc1 (centres undefined) | ?
COCC1CN(C(C)=O)CC12CCN(S(=O)(=O)Cc1ccc(F)cc1)CC2 (centres undefined) | -8%
CC(c1cccs1)N(C)Cc1ccc(F)cc1 (centres undefined) | 0%[70.6 µM]
Cn1cnc(S(=O)(=O)N2CCC3(CCCCO3)CC2)c1 | 1%
C[C@H](O)c1c(-c2ccc(Cl)cc2)noc1C(=O)N(C)C | 5%[70.6 µM]
O=C(c1ccn[nH]1)N1CCC[C@H](n2c(=O)n(CC3CC3)c3cccnc32)C1 | 4%
O=C1NC2(CCN(C(=O)c3ccc(Cl)c(F)c3)CC2)CC1c1ccccc1 (centres undefined) | -2%
Cc1cc(-c2cc3c(cn2)CN(Cc2c[nH]c4ccccc24)CCN3)ccn1 | -6%[70.6 µM]
CC(C)N1CCC(CCNC(=O)CCC[C@H]2NC[C@@H]3C[C@H]2CN(Cc2ccccc2)C3)CC1 | -10%
CS(=O)(=O)CC(O)c1cc2n(n1)CCN(Cc1ccc(Cl)s1)C2 (centres undefined) | 0%
O=C([C@H]1CNC[C@H](C(=O)N2CCN(c3cccnc3)CC2)C1)N1CCOCC1 | 1%
O=C(NCc1ccc(N2CCCCC2)cc1)c1cnc(-c2ccccc2)nc1-c1ccncc1 | -6%
CCc1csc(Cn2cc(-c3cncnc3)nn2)n1 | 6%
Cc1ccc(OCC(=O)N2CC(Oc3ccc(-c4nc(-c5ccccc5)no4)cc3)C2)cc1 | 1%
CC(C)(C)c1ccnc(N[C@H]2CO[C@H]3[C@@H]2OC[C@@H]3NC(=O)c2ccco2)n1 | ?

Random excerpt: 4 entries already listed, in no set order.
SMILES | hNpr1 antagonist
O=C([C@H]1CNC[C@H](C(=O)N2CCN(c3cccnc3)CC2)C1)N1CCOCC1 | 1%
Cn1cnc(S(=O)(=O)N2CCC3(CCCCO3)CC2)c1 | 1%
CCc1csc(Cn2cc(-c3cncnc3)nn2)n1 | 6%
COCC1CN(C(C)=O)CC12CCN(S(=O)(=O)Cc1ccc(F)cc1)CC2 (centres undefined) | -8%

The listing continues:
SMILES | hNpr1 antagonist
COc1ccccc1N1CCN([C@H]2[C@@H]3OC[C@@H](O3)[C@@H](NC(=O)Nc3ccc(F)cc3)[C@@H]2O)CC1 | -3%
Cn1ccc(Nc2nccc3c(=O)cc(-c4cccnc4)oc23)n1 | -2%[70.6 µM]
CN(C)c1cccc(-c2cc(C(=O)NCc3cccnc3)c3c(c2)ncn3C)c1 | 0%[70.6 µM]
CC(C)CCN1C(=O)CC[C@]2(C(=O)NCc3cccc(Cl)c3)CCCC[C@@H]12 | 3%
CCc1cc(=O)n(CC(=O)Nc2cccc(C#N)c2)c(-c2ccccc2)n1 | -28%
Cc1ccc(CNC(=O)CN2CC3CC(C2)[C@H]2CCCC(=O)N2C3)o1 (some centres undefined) | 4%
O=C(CC1CCCN(c2cnn(CC3CC3)c(=O)c2)C1)NCc1ccccn1 (centres undefined) | -3%
Cc1cccc(NC(=O)C[C@H]2NC(=O)c3ccccc3NC2=O)n1 | 3%
COc1ccccc1-c1cc2c(ccn2C(C)C)c(C(=O)NCc2c(C)cc(C)[nH]c2=O)n1 | -27%
CN1C(=O)CC[C@]2(C(=O)NCc3ccc(F)c(Cl)c3)CCCC[C@@H]12 | 3%
Cn1cc(CN2CCc3ccccc32)ccc1=O | ?
COc1cccc(NC(=O)C2(C)CN(C)Cc3ccc(NCc4ccccc4)nc32)c1 (centres undefined) | -2%[70.6 µM]
COC(=O)CC1C(=O)NCCN1C(=O)c1n[nH]c2c1CCCC2 (centres undefined) | -1%
COc1ccc(OC)c(CNC(=O)c2c(C)sc3ccn(C)c(=O)c23)c1 | -11%
O=C(O)CCC(=O)N1Cc2[nH]cnc2C[C@H]1C(=O)NC1CCCCC1 | 2%[70.6 µM]
O=C1CCN(C(=O)c2cc3ccccc3[nH]2)CCCCCCN1 | 0%
Fc1ccc(C2Cn3nnc(-c4nc(-c5ccccc5Br)no4)c3CO2)cc1 (centres undefined) | -10%
COc1cccc2c1OCC(C(=O)N1CCC(c3noc(C)n3)CC1)C2 (centres undefined) | 2%
COc1ccc(CN2C(=O)N(c3cccc(C(F)(F)F)c3)C(=O)[C@@H]3[C@H]2CCN3C(=O)C(C)(C)C)cc1 | -3%
CN(CCNC(=O)c1cc2cn(C3CC3)cc2s1)C1CCCCC1 | 0%
O=C(O)c1ccc(CN2CCC(N3CCCC(C(=O)N4CCCC4)C3)CC2)cc1 (centres undefined) | 3%
CN(Cc1ccc(F)cc1)C(=O)C(C)(C)C | 16%[70.6 µM]
O=C(O)CCCc1nc(-c2ccncc2)nn1C1Cc2ccccc2C1 | 5%
CN(Cc1ccccc1)Cc1nc2c(n1Cc1ccccc1)C(=O)N(Cc1ccccc1F)CCN2 | 0%
COC1CN(c2cccc(F)c2)C12CCN(C(=O)NCC(C)C)CC2 (centres undefined) | 1%
CCNC(=O)Nc1ccc([C@H]2OCC(=O)N(Cc3scnc3C)[C@@H]2CO)cc1 | 12%[70.6 µM]
c1ccc(-c2cc(CC3(NCc4ccco4)COC3)no2)nc1 | 11%[70.6 µM]
Cn1cnc(S(=O)(=O)N2CCC(c3noc(-c4ccccn4)n3)C2)c1 (centres undefined) | 1%
O=c1c2c(n(CCOc3ccccc3)n1-c1ccccc1)CN(Cc1nccs1)CC2 | 2%[70.6 µM]
COc1ccc(-c2nc3cc(C)ccc3cc2CN2CCCC(OC)C2)cc1 (centres undefined) | 5%
CC(C)c1ccc(C(C)NC(=O)CN2CCCc3nc(-c4ccccc4)ncc3C2=O)cc1 (centres undefined) | -16%
CC(C)c1noc(-c2ccn3c(CNC(=O)Cc4ccccc4Cl)nnc3c2)n1 | -1%
CCNC(=O)N[C@H]1CO[C@H]2[C@@H]1OC[C@@H]2Nc1nccc(-c2cccc(F)c2)n1 | 0%[70.6 µM]
Cc1ccccc1NC(=O)N1C[C@@H](F)C[C@H]1C(=O)N1CCc2ccccc2C1 | 0%
O=C(NCc1cccc(C(F)(F)F)c1)C1(CCO)CCN(c2ncccn2)C1 (centres undefined) | 4%
COC(=O)[C@@H](Cc1cccnc1)NC(=O)[C@H]1CN(C(=O)Nc2ccccc2)CCN1C(=O)C1CCCCC1 | 3%
O=C(CC1CCN(C(=O)C2(c3ccccc3)CC2)C1)NC1CC1 (centres undefined) | 0%
CCCc1nnc([C@H]2CCN(C(=O)COC)C2)o1 | 3%[70.6 µM]
CO[C@@H]1CO[C@H]2[C@@H]1OC[C@@H]2NC(=S)Nc1ccccc1 | -3%[70.6 µM]
COc1ccc(CNC(=O)c2cc3n(n2)CC(c2ccc(Cl)cc2)OC3)cc1OC (centres undefined) | ?
CCCN1C(=O)Cc2ccccc2C1C(=O)NCc1ccc(F)cc1Cl (centres undefined) | -18%
O=C(CC1CCCCC1)N1CCC2(CC1)CC(N(Cc1ccc(F)cc1)C1CC1)CCO2 (centres undefined) | 3%
Nc1nc2c(s1)C(c1ccccc1)CC(=O)N2 (centres undefined) | -1%
O=C(c1cccnc1)N1CCC2(CC1)CC(N(C(=O)c1ccccc1)C1CC1)CCO2 (centres undefined) | 5%
COCCC(=O)N1CCCCCCNC(=O)[C@@H]2C[C@@H](c3nc(-c4cccnc4)no3)C[C@@H]21 | 5%
c1ccc(-c2ccc(CN3CCOC[C@H](Oc4cnccn4)C3)cc2)cc1 | ?
Cc1nn(CCNC(=O)c2ccccc2C2CCNC2)c(C)c1Cl (centres undefined) | -1%
COCCN1CCCC(c2[nH]ccc2C(=O)NCCc2nc3ccccc3[nH]2)C1 (centres undefined) | 6%
O=C(c1cnn2ccccc12)N1CCC(Cc2cccc(CO)c2)C1 (centres undefined) | 7.1µM*
O=C1C(N2CCN(Cc3ccc[nH]3)CC2)CCN1Cc1ccccn1 (centres undefined) | -10%
O=C(c1cccc2ncccc12)N1CCC2(CC1)Nc1ccccc1NC2=O | 2%
O=C(c1cc(F)ccc1F)N1CC(Oc2cccc(-c3nc(-c4ccccc4)no3)c2)C1 | -1%
CC1=C[C@@H](CN2CCCC2)[C@H](C(C)C)C[C@H]1Cc1nnc(-c2ccc([N+](=O)[O-])cc2)o1 | -3%[70.6 µM]
CCN1C(=O)C2CC3(CCN(Cc4ccc5cc[nH]c5c4)CC3)CN2C1=O (centres undefined) | -1%
COc1ccc(CNC(=O)C[C@@H]2CCNC[C@@H]2Cc2cc(-c3ccc(C(C)(C)C)cc3)on2)cc1OC | 1%
O=C(O)CCC(=O)N[C@H]1CCN2C(=O)c3cc(-c4ccccc4)ccc3NC(=O)[C@H]12 | 3%[70.6 µM]
O=C(Nc1ccccc1)N1CCC(Oc2ncccc2C(=O)N2CCOCC2)C1 (centres undefined) | -1%
CCOc1ccc(-c2cc3c(=O)n(CCNC(=O)Cc4cccc(F)c4)ccn3n2)cc1 | -21%
COCCNC(=O)[C@@H]1C[C@H](Oc2cccnc2)CN1C(=O)C1CC=CC1 | 5%
O=C(CC1CC1)N1C[C@H]2OC(=O)N(CCc3cccc(Cl)c3)[C@H]2C1 | 3%

Continuation.
SMILES | hNpr1 antagonist
O=C(Cc1ccccc1)N1CCC(Cc2nc(-c3ccccc3)n[nH]2)CC1 | -1%
COc1ccc(S(=O)(=O)N2C[C@@H]3C[C@H](C2)c2ccc(NS(=O)(=O)c4cccc(F)c4)c(=O)n2C3)cc1 | -7%
CCc1noc(-c2nc(-c3ccccc3F)no2)n1 | -18%
COc1ccc(C(=O)N2CC(c3nnc(-c4ccncc4)o3)C3(CCOCC3)C2)cc1 (centres undefined) | -18%
O=C(Nc1cnc(-c2cccc(Cl)c2)nc1)c1ccsc1 | -17%
c1csc(CNC[C@H]2Cn3ccnc3CO2)c1 | 1%[70.6 µM]
COc1ccccc1OCC(=O)c1ccc2c(c1)N(C(C)C(=O)NCCc1ccccc1)C(=O)CO2 (centres undefined) | 7%
Cc1ccc(OC2(C(=O)N[C@H]3CCc4ccccc43)CCNCC2)cc1 | -12%
Clc1ccc(-c2nnc([C@H]3CCN(Cc4c[nH]c5ccccc45)C3)o2)cc1 | -28%[70.6 µM]
Cc1nc(-c2c3n(c(=O)n(Cc4ccc(C#N)cc4)c2=O)CCCCC3)no1 | 0%
CS(=O)(=O)N1CCC(N2CC(OCC3CC3)C23CCCCC3)CC1 (centres undefined) | -1%
CN(C)[S+](=O)([O-])c1ccc2c(c1)OCCN(Cc1cccc(F)c1F)C2 | -2%[70.6 µM]
COc1ccc2nc([C@H]3CCN(Cc4ccc(F)cc4)C3)[nH]c2c1 | -15%[70.6 µM]
O=CN1CCC(Cn2cnc3cccnc32)CC1 | 0%[70.6 µM]
O=C(c1ccc2c(c1)OCO2)N1CCC2(CC1)CC(O)CCO2 (centres undefined) | -2%
O=C(NC1CCN(C(=O)N2CC3CC(C2)[C@H]2CCCC(=O)N2C3)CC1)c1cnccn1 (some centres undefined) | 5%
CCCS(=O)(=O)N1CC(F)(F)C[C@H]1c1nc(-c2cccnc2)no1 | 1%
Cc1ccccc1C(=O)N1CCC2(C1)C(=O)N(C)c1ccccc12 (centres undefined) | -1%
COc1ncccc1Nc1cnc2ccc(-c3ccc(F)cc3)nn12 | -2%[70.6 µM]
COCC1CN(C(C)=O)CC12CCN(Cc1cccnc1)CC2 (centres undefined) | -2%
CCn1c(C2CCCN(Cc3ccccn3)C2)nn(C)c1=O (centres undefined) | 1%
